RVFV N-RNA inh: inhibitors of Rift Valley Fever Virus nucleocapsid-RNA interaction; % bound, % (test concentration not listed); 20,000 compounds, 0.1% hits; P21700; AID 651828; RVFV N-RNA binding, fluorescence polarization; hits give low values;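 active = between 0 and 58% in either replicate with normal brightness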;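 also: 100 nL library stock added to about 12 µL; 100% = protein and probe without compound and 0% = probe alone; numbers are from one replicate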
Target sequence (P21700 whole entry, looked up): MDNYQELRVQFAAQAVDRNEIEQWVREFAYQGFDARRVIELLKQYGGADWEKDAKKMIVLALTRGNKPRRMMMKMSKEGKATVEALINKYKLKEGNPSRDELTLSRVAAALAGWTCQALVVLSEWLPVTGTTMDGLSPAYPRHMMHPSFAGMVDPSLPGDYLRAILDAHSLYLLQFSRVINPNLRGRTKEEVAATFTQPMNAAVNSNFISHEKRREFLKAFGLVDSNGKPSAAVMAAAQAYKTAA
* = called active by the depositor; & = joins results of further samples.

Start of the listing, in advance (two entries):
CCOC(=O)C1=C(C)NC(C)=C(C(=O)OC)C1c1cccc(Cl)c1Cl (stereo not given) was read as RVFV N-RNA inh 92&97&95.
CCCCc1ccc(C(=O)O)nc1 was read as RVFV N-RNA inh 94.

The whole of this part, from the first entry:
CCOC(=O)C1=C(C)NC(C)=C(C(=O)OC)C1c1cccc(Cl)c1Cl (stereo not given) was read as RVFV N-RNA inh 92&97&95.
CCCCc1ccc(C(=O)O)nc1 was read as RVFV N-RNA inh 94.
`CNC(=O)Oc1ccc2c(c1)[C@]1(C)CCN(C)[C@@H]1N2C` gave RVFV N-RNA inh 99&101.
Screening Cc1sc2ccccc2c1CC1=NCCN1 returned RVFV N-RNA inh 93.
Screening CCOC(=O)Nc1nnc(C(C)C)s1 returned RVFV N-RNA inh 90.
FC(F)(F)c1ccc(N2CCN(c3cc(C(F)(F)F)nc4ccccc34)CC2)nc1 was read as RVFV N-RNA inh 92.
Screening N#CC1=C(C#N)NC2(CCCCC2)C2CCCCC2=N1 (stereo not given) returned RVFV N-RNA inh 93.
For Cc1ccc(C)c(CSC2=NN3CCCC(=O)N=C3S2)c1 the results were RVFV N-RNA inh 99.
For Cc1ccccc1NS(=O)(=O)c1ccc2oc(=O)ccc2c1 the results were RVFV N-RNA inh 95.
For COc1ccc2c(=O)c(N3C(=O)c4ccccc4C3=O)c(C)oc2c1 the results were RVFV N-RNA inh 89.
For COC(=O)CNc1ccc(Br)cc1 the results were RVFV N-RNA inh 98.
For O=C1OC(C(=O)NC2CCCCC2)Cc2ccccc21 (stereo not given) the results were RVFV N-RNA inh 96.
COc1ccc(CN(C)C(=O)c2ccc(OC)c(OC)c2)cc1 was read as RVFV N-RNA inh 105.
Screening CN(C)/C=N/C(=S)Nc1cccc(F)c1 returned RVFV N-RNA inh 99.
`Clc1cnc(Oc2ccc(Oc3ncc(Cl)cc3Cl)cc2)c(Cl)c1` gave RVFV N-RNA inh 98.
Screening CN1CCN(C(=O)CSCc2ccc(Br)cc2)CC1 returned RVFV N-RNA inh 99.
O=C1Nc2ccccc2C(=O)C1(N1CCOCC1)N1CCOCC1 was read as RVFV N-RNA inh 95.
Screening Nc1nc2c(ncn2CCC(CO)CO)c(=O)[nH]1 returned RVFV N-RNA inh 94&92.
CC1CC(C)CN(S(=O)(=O)c2ccc(C(=O)Nc3nnc(C4CC4)o3)cc2)C1 (stereo not given) was read as RVFV N-RNA inh 99.
`Cc1ccc(-c2cn(S(=O)(=O)c3cccc4nsnc34)nc2N)cc1` gave RVFV N-RNA inh 100.
Cc1ccc(C(C)C)cc1OC(=O)c1cn(CCC#N)nc1-c1cccs1 was read as RVFV N-RNA inh 94.
Screening Brc1ccc(-c2nnc3sc(CNCc4ccco4)cn23)cc1 returned RVFV N-RNA inh 88.
`O=C(O)C(CO)c1ccccc1` (stereo not given) gave RVFV N-RNA inh 91.
CC1OC1P(=O)(O)O (stereo not given) was read as RVFV N-RNA inh 98.

3 structures out of the list, ordered by molecular weight, smallest number first:
CC1OC1P(=O)(O)O (stereo not given) was read as RVFV N-RNA inh 98.
O=C1Nc2ccccc2C(=O)C1(N1CCOCC1)N1CCOCC1 was read as RVFV N-RNA inh 95.
`Clc1cnc(Oc2ccc(Oc3ncc(Cl)cc3Cl)cc2)c(Cl)c1` gave RVFV N-RNA inh 98.

The results go on:
CN(Cc1ccccc1)C(=O)c1cc2ncc(Br)cn2n1 was read as RVFV N-RNA inh 97.
`CC/C(=C(/CC)c1ccc(O)cc1)c1ccc(O)cc1` gave RVFV N-RNA inh 97.
`COC(=O)COc1ccccc1C1NC(=O)NC(C)=C1C(=O)Nc1ccccc1OC` (stereo not given) gave RVFV N-RNA inh 95.
Cc1ccc(N(C)C(=O)N2CCN(C(=O)N(C)c3ccc(C)cc3)CC2)cc1 was read as RVFV N-RNA inh 113.
For CCN(CC)/C(C)=N/S(=O)(=O)c1ccc(Cl)cc1 the results were RVFV N-RNA inh 108.
COC(=O)Cc1c(C)c2ccc(OCC(N)=O)c(C)c2oc1=O was read as RVFV N-RNA inh 111.
Screening Cc1cnn(-c2ccccc2)c(=O)c1N(C)C returned RVFV N-RNA inh 91.
`CC(=O)SCCC(=O)Nc1ccccc1` gave RVFV N-RNA inh 95.
Screening CCC(Sc1nc(NC(C)=O)c(NC(=O)c2cccs2)c(=O)[nH]1)C(=O)O (stereo not given) returned RVFV N-RNA inh 97.
Screening CCN1C(=O)CCSc2ccccc21 returned RVFV N-RNA inh 99.
`Cc1ccsc1/C=N/N1CCN(Cc2ccc(Cl)cc2)CC1` gave RVFV N-RNA inh 95.
For Nc1nonc1NC(=O)N/N=C/c1ccc(C(F)(F)F)cc1 the results were RVFV N-RNA inh 103.
Screening O=C(NCc1ccc(N2CCCC2=O)cc1)Nc1ccccc1 returned RVFV N-RNA inh 104.
Screening CC1=CC(C)C2C(=O)N(c3ccccc3)NC(=O)C2C1 (stereo not given) returned RVFV N-RNA inh 102.
`O=C(O)CCCNC1=NCCC1` gave RVFV N-RNA inh 104.
For CCc1cc(=O)oc2cc(OC(=O)c3ccco3)c(Cl)cc12 the results were RVFV N-RNA inh 96.
For O=C1NCC(c2ccccc2)C1C(=O)N/N=C\c1cc2c(cc1Br)OCO2 (stereo not given) the results were RVFV N-RNA inh 89.
CCS(=O)(=O)CS(=O)(=O)CC was read as RVFV N-RNA inh 98.
For S=C(NCCN1CCOCC1)N1CCc2ccccc21 the results were RVFV N-RNA inh 96.
`CC(=O)NC(=S)Nc1ccc(Nc2ccccc2)cc1` gave RVFV N-RNA inh 98.
`C=CCN1C(=O)S/C(=C/c2ccc(Sc3nc4ccccc4[nH]3)o2)C1=O` gave RVFV N-RNA inh 97.
COc1cccc2c1OC(c1ccco1)N1N=C(c3ccccc3)CC21 (stereo not given) was read as RVFV N-RNA inh 94.
Cc1nn(-c2ccccc2)nc1CNC(=O)c1ccc2nsnc2c1 was read as RVFV N-RNA inh 99.
For O=C1CC2(CCN(C(=O)c3ccccc3)CC2)Oc2ccccc21 the results were RVFV N-RNA inh 101.
For CC1Cc2ccccc2N1C(=O)Nc1c[nH]c2ccccc12 (stereo not given) the results were RVFV N-RNA inh 97.
`O=C(NCc1ccccc1)Nc1ccccc1F` gave RVFV N-RNA inh 93.
`C=CCNc1oc(Cc2ccccc2)nc1C#N` gave RVFV N-RNA inh 102.
`Cc1cc2cc(CN3C(=O)c4ccccc4C3=O)ccc2n1C` gave RVFV N-RNA inh 95.
`CCCNS(=O)(=O)c1ccc(OCC(=O)NCCC2=CCCCC2)cc1` gave RVFV N-RNA inh 92.
`CCOCC(=O)N1CCN(CC)CC1` gave RVFV N-RNA inh 99.
`O=C(O)c1cc(N=Cc2ccccc2)ccc1O` gave RVFV N-RNA inh 108.
For COc1ccc(C2CC(c3nc4ccccc4[nH]3)=NN2C(=O)c2ccc(Br)o2)cc1 (stereo not given) the results were RVFV N-RNA inh 98.
O=C(O)c1ccc(-c2ccccc2)cc1 was read as RVFV N-RNA inh 96.
Screening CC(C)(C)N(C(=O)c1ccc(S(=O)(=O)N2CCCC2)cc1)C(=O)N1CCCCC1 returned RVFV N-RNA inh 96.
Screening O=C(NC(=S)N1CCN(c2ccccc2)CC1)c1ccccc1 returned RVFV N-RNA inh 93.
`Cc1ccc(SCCC(=O)N(C)C)cc1` gave RVFV N-RNA inh 79.
For O=C1N=C(O)CN1/N=C/c1ccc(-c2ccc([N+](=O)[O-])cc2)o1 the results were RVFV N-RNA inh 99.
For Cc1cc(C(C)(C)C)ccc1OCCN(C)C the results were RVFV N-RNA inh 97.
Screening Cc1ccc(NC(=O)COc2cccc3c2CCNC3=O)cc1Cl returned RVFV N-RNA inh 88.
For CCOC(=O)c1ccc(NC(=O)CS(=O)(=O)c2cn(CC)c3ccccc23)cc1 the results were RVFV N-RNA inh 99.
Screening COC(=O)c1ccc(CSc2n[nH]c(-c3ccccc3)n2)o1 returned RVFV N-RNA inh 93.
FC(F)(F)c1ccc(N2CCCC2)nc1 was read as RVFV N-RNA inh 96.
COC(=O)COc1ccc2c(=O)c(-c3ccc4c(c3)OCCO4)c(C)oc2c1 was read as RVFV N-RNA inh 96.
`CCOC(=O)CC(C)=Nc1cnn(-c2ccccc2)c1` gave RVFV N-RNA inh 91.
`CC(C)C[C@H](NC(=O)[C@H](O)[C@H](N)Cc1ccccc1)C(=O)O` gave RVFV N-RNA inh 102.
`Cc1ccc(NC(=O)c2ccccc2NS(C)(=O)=O)cc1C` gave RVFV N-RNA inh 91.
For CNC(=O)c1ccccc1-c1ccccc1 the results were RVFV N-RNA inh 92.
`CCOC(=S)NC(C)(C)C` gave RVFV N-RNA inh 91.
For COC(=O)C(C)Oc1ccc(C(=O)O)cc1OC (stereo not given) the results were RVFV N-RNA inh 103.
CC(=O)Nc1ccc(S(=O)(=O)N(C)C)cc1 was read as RVFV N-RNA inh 98.
C#CCn1c(=NC(C)=O)sc2cc(NC(C)=O)ccc21 was read as RVFV N-RNA inh 96.
`Cc1cc(OC(=O)C2CC(=O)N(c3ccc(F)cc3)C2)ccc1N1C(=O)CCC1=O` (stereo not given) gave RVFV N-RNA inh 100.
`COC(=O)CSc1nc(C)cc(N2CCOCC2)n1` gave RVFV N-RNA inh 92.
For CC(C)CCCC(C)NC(C)C (stereo not given) the results were RVFV N-RNA inh 105.
Screening COc1cc(N)c(Cl)cc1C(=O)NC1CN2CCC1CC2 (stereo not given) returned RVFV N-RNA inh 97.
CC(C)(C)C1COC(CC2=NC(C(C)(C)C)CO2)=N1 (stereo not given) was read as RVFV N-RNA inh 100.
For COC(=O)c1ccccc1NC(=O)Nc1ncn(Cc2cccc(C(F)(F)F)c2)n1 the results were RVFV N-RNA inh 101.
`O=C(CSc1n[nH]c(=O)n1-c1cccnc1)c1ccc(N2CCOCC2)cc1` gave RVFV N-RNA inh 110.
Cc1ccc(N(Cc2ccccc2F)S(C)(=O)=O)c(C)c1 was read as RVFV N-RNA inh 90.
Screening OC[C@H]1O[C@@H](n2cnc3c(NC4CCCCC4)ncnc32)[C@H](O)[C@@H]1O returned RVFV N-RNA inh 103.
`CCOC(=O)CC1=CSC2=NCCN12` gave RVFV N-RNA inh 98.
`CC(SCc1n[nH]c(=O)[nH]1)C(=O)Nc1nccs1` (stereo not given) gave RVFV N-RNA inh 91.
Screening Cc1cc(C)n(-c2nnc(C)n2NS(=O)(=O)c2ccc(F)cc2)n1 returned RVFV N-RNA inh 94.
O=C(NCCN1CCOCC1)c1cccc2c1OCCCO2 was read as RVFV N-RNA inh 97.
`Cc1ccnc(NC(=O)CCSc2ccccc2)c1` gave RVFV N-RNA inh 91.
`CCCCc1nnc(NC(=O)CCN2C(=O)/C(=C\c3ccco3)SC2=S)s1` gave RVFV N-RNA inh 98.
Screening CCOc1ccc(NC(=O)CSc2nc(=O)n(Cc3ccco3)c3c2CCCC3)cc1 returned RVFV N-RNA inh 92.
Screening COc1ccc(C)cc1Nc1nnc(C)c(=O)[nH]1 returned RVFV N-RNA inh 93.
Screening CN(C)c1ccc(C(=O)NCc2ccc3c(c2)CCO3)cc1 returned RVFV N-RNA inh 112.
`O=C(CN1C(=O)CCC1=O)Nc1nnc(-c2cccnc2)o1` gave RVFV N-RNA inh 95.
Screening O=c1[nH]c(O)c(C=Nc2ccccc2)c(=O)[nH]1 returned RVFV N-RNA inh 101.
CCN(CC)S(=O)(=O)c1ccc(C(=O)Nc2nnc(-c3ccc(S(C)(=O)=O)cc3)o2)cc1 was read as RVFV N-RNA inh 93.

Fetched one by one from the entries so far, 7 records:
For Cc1cc(C(C)(C)C)ccc1OCCN(C)C the results were RVFV N-RNA inh 97.
`Cc1ccsc1/C=N/N1CCN(Cc2ccc(Cl)cc2)CC1` gave RVFV N-RNA inh 95.
Screening OC[C@H]1O[C@@H](n2cnc3c(NC4CCCCC4)ncnc32)[C@H](O)[C@@H]1O returned RVFV N-RNA inh 103.
For COC(=O)CNc1ccc(Br)cc1 the results were RVFV N-RNA inh 98.
For CCOC(=O)c1ccc(NC(=O)CS(=O)(=O)c2cn(CC)c3ccccc23)cc1 the results were RVFV N-RNA inh 99.
For O=C1N=C(O)CN1/N=C/c1ccc(-c2ccc([N+](=O)[O-])cc2)o1 the results were RVFV N-RNA inh 99.
`COC(=O)COc1ccccc1C1NC(=O)NC(C)=C1C(=O)Nc1ccccc1OC` (stereo not given) gave RVFV N-RNA inh 95.

The results go on.
CCOC(=O)c1c(NC(=O)c2ccc(Cl)s2)sc2c1CCN(C(C)=O)C2 was read as RVFV N-RNA inh 100.
Cc1ccc(C(=O)Nc2ccc(-c3nc4ccccc4o3)c(O)c2)cc1 was read as RVFV N-RNA inh 99.
For O=C(CS(=O)(=O)c1cn(CC(=O)N2CCCC2)c2ccccc12)Nc1ccccc1 the results were RVFV N-RNA inh 97.
CC(C)(C)S(=O)c1cccs1 (stereo not given) was read as RVFV N-RNA inh 95.
O=C(Nc1nc2ccccc2n1CCN1CCOCC1)c1cccc([N+](=O)[O-])c1 was read as RVFV N-RNA inh 97&105.
Screening CC(C)CC(=O)N1CCN(c2ccc(F)cc2)CC1 returned RVFV N-RNA inh 95.
CC(C)(C)C(=O)CC(=O)Nc1ccc(Cl)c(N)c1 was read as RVFV N-RNA inh 98.
For CCc1ccc(OCCCC(=O)O)c(Br)c1 the results were RVFV N-RNA inh 89.
CC(=Nc1ccccc1)Nc1ccccc1 was read as RVFV N-RNA inh 99.
Screening CCCNC(=O)COc1ccc(Br)cc1C returned RVFV N-RNA inh 91.
`Cn1c(SCC(=O)N2CCCCC2)nc2ccccc2c1=O` gave RVFV N-RNA inh 94.
COc1ccc(-c2csc(N/N=C\c3ccc(O)cc3)n2)cc1 was read as RVFV N-RNA inh 93.
O=C(c1ccccc1)C1CCN(S(=O)(=O)c2cc(C(F)(F)F)cc(C(F)(F)F)c2)CC1 was read as RVFV N-RNA inh 93.
For Cc1cc(C)cc(C(=O)Nc2ccc(-c3ccc(N4CCOCC4)nn3)cc2)c1 the results were RVFV N-RNA inh 87.
Screening COC(=O)C1=NNC(C(=O)OC)=NN1 returned RVFV N-RNA inh 100.
`COCC(=O)N(Cc1ccccc1)c1ccccn1` gave RVFV N-RNA inh 88.
For CCCc1n[nH]c(=S)n1N the results were RVFV N-RNA inh 85.
Screening CCCN(CCC)C(=O)CCc1ccccc1 returned RVFV N-RNA inh 96.
Screening Cc1ccc2c(c1)c1c3n2CCN(CC#N)C3CCC1 (stereo not given) returned RVFV N-RNA inh 94.
Screening Nc1ccc(S(=O)(=O)Nc2ncccn2)cc1 returned RVFV N-RNA inh 94.

Not all compounds are listed; the hit share may differ from the screen's.
